SARS PLpro yeast = qHTS of Yeast-based Assay for SARS-CoV PLP. Potency, µM (titrated, usually from 32.9 µM), for the others: at the top dose activity, positive = growth rescue. S. cerevisiae expressing SARS-CoV PLpro, growth rescue; control for the full effect not named in the record. 330,000 tested, 0.19% active. AID 485353, 2010; note: 0% is about no effect; nearly all actives have a fitted effect of over 55% in size; growth read by luminescence after 48 h
NS1 inh = qHTS Assay for Inhibitors of Influenza NS1 Protein Function | S. cerevisiae slowed by influenza A NS1, growth recovery by OD600 | Potency, µM (top dose mostly 46.1 µM), without a hit: top-dose activity, positive = more growth | 270,000 tested, 0.4% active; note: actives are rising curves; nearly all actives have a fitted effect of over 50% in size
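OD600 was taken as the measure of yeast growth restored by compound in an NS1-expressing S. cerevisiae strain. Cells had been washed out of glucose medium and diluted 1:100 into galactose -URA medium, pH 6.0.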
LASV entry inh = qHTS for Inhibitors of binding or entry into cells for Lassa Virus; Lassa virus pseudotype entry inhibition, cell reporter; control for the full effect not named in the record; Potency, µM (series often up to 37.9 µM), for inactives: at the highest dose activity change, negative = inhibition, hits mostly inhibitors; 300,000 tested, 1.2% active; AID 540256, 2011; active means well fitted inhibition curve with a large enough effect; inconclusive means small, poorly fitted or top-dose-only effect, or effect the other way; inactive means flat fitted curve, though single readings scatter; tested in HEK293 cells; note: % is set by controls: 0 for no effect and ±100 for the full control effect; nearly all actives have a fitted effect of over 50% in size; luciferase read-out
RE007 growth inh = qHTS Assay for Inhibitors of the HIV-1 protein Vpr; AID 651644, 2012; S. pombe RE007 Vpr strain, BacTiter-Glo ATP luminescence, 24 h; control for the full effect not named in the record; 360,000 tested, 0.21% active; Potency, µM (series often up to 92.2 µM), for the others: top-dose activity change, negative = less growth; active = well fitted falling curve with a large enough effect; inconclusive = small, poorly fitted or top-dose-only effect; inactive = no such curve, though single readings can be large or run the other way;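 note: % is set by controls: 0 for no effect and ±100 for the full control effect; nearly all actives have a fitted effect of over 50% in size; the assay follows cell death caused by Vpr and the record does not say whether a fall means rescue or toxicity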
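Fission yeast strain RE007, carrying one chromosomally integrated HIV-1 vpr copy, was seeded at OD 0.01 in PMG+AL medium with 23 nL pinned compound. After 24 h at 30 °C and 99% humidity, viability was read by BacTiter-Glo luminescence.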
Marburg entry inh = qHTS for inhibitors of binding or entry into cells for Marburg Virus; Marburg virus pseudotyped entry inhibition, cell reporter; control for the full effect not named in the record; about a third of the inactives were read at about 46 µM; Potency, µM (top dose mostly 37.8 µM), without a hit: at the highest dose activity change, negative = inhibition, most hits filed as inhibitors; 300,000 tested, 1.8% active; AID 540276, 2011; active = well fitted inhibition curve with a large enough effect; inconclusive = small, poorly fitted or top-dose-only effect, or effect the other way; inactive = flat fitted curve, though single readings scatter; tested in HEK293 cells; about a fifth of its hits are not listed in these tables; note: % is set by controls: 0 for no effect and ±100 for the full control effect; luciferase read-out
Cruzain Triton = qHTS Assay for Promiscuous and Specific Inhibitors of Cruzain (with detergent) | Cruzipain (Trypanosoma cruzi), P25779 | purified cruzain, Z-FR-AMC fluorescence, 0.01% Triton | Potency, µM, inactives show max response, negative = inhibition, usual class: inhibitors | 200,000 tested, 0.43% active; active = well fitted curve in the direction sought with a large enough effect; inconclusive = small, poorly fitted or top-dose-only effect, or another doubt; inactive = no such curve, though single readings can be large; an effect the other way counts as inactive or inconclusive;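 note: plate controls were neutral wells for no effect and buffer without enzyme for full effect; nearly all actives have a fitted effect of over 40% in size; top concentration of the series not given in the record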
Target sequence (P25779 123-467 limits assumed): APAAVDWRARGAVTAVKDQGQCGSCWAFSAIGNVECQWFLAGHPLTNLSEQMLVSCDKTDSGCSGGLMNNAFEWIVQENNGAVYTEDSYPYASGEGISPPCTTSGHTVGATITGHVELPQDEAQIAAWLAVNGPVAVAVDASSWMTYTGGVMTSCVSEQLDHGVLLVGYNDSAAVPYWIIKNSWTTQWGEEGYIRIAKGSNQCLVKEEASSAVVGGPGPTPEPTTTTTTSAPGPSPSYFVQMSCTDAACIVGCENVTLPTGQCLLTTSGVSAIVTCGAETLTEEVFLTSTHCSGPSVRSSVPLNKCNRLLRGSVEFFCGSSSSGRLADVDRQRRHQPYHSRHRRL
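Sodium acetate buffer (100 mM, pH 5.5) containing 5 mM DTT and 0.01% Triton X-100 hosted 1.5 nM cruzain and test compound for 15 min at room temperature. Cleavage of 2 uM Z-FR-AMC was then tracked by fluorescence.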
StopGo reporter = High Throughput Screening for Foot and Mouth Disease Virus Antivirals; 410,000 tested, 1.2% active; Potency, µM (highest dose often 57.9 µM), for the others: at the top dose signal change, negative = less light; human cells with a luciferase reporter of 2A StopGo recoding; control for the full effect not named in the record; active = well fitted falling curve with a large enough effect; inconclusive = small, poorly fitted or top-dose-only effect; inactive = no such curve, though single readings can be large or run the other way; tested in HEK293T cells; note: % is set by controls: 0 for no effect and ±100 for the full control effect; nearly all actives have a fitted effect of over 45% in size; luciferase light after 4 h
Cruzain inh noDet = qHTS Assay for Promiscuous and Specific Inhibitors of Cruzain (without detergent). 200,000 tested, 2.3% active. Cruzipain (Trypanosoma cruzi), P25779. purified cruzain, Z-FR-AMC fluorescence, no detergent. AID 1476, 2009. Potency, µM, for inactives: max response, negative = inhibition, most hits filed as inhibitors; active = well fitted curve in the direction sought with a large enough effect; inconclusive = small, poorly fitted or top-dose-only effect, or another doubt; inactive = no such curve, though single readings can be large; an effect the other way counts as inactive or inconclusive;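 note: plate controls were enzyme without inhibitor for no effect and buffer without enzyme for full effect; nearly all actives have a fitted effect of over 40% in size; top concentration of the series not given in the record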
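Detergent-free condition (0.00005% Triton X-100) in acetate buffer pH 5.5 with DTT. 1.5 nM enzyme and compound were pre-mixed 15 min, then 2 uM Z-FR-AMC substrate added; reaction progress from fluorescence change between first and third reads (60 s).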
* marks the source's active call; other numbers are inactive results; ? = inconclusive; nt = no result given; & = joins results of further samples; ! = not confirmed by another sample; [ ] = another dose, or the depositor's remark. Unless noted, calls come from the whole dose curve; as a rule, active means well fitted rising curve with a large enough effect; inconclusive means small, poorly fitted or top-dose-only effect; inactive means no such curve, though single readings can be large or run the other way. Potency is the fitted concentration of half-maximal effect.

SMILES | SARS PLpro yeast | NS1 inh | LASV entry inh | RE007 growth inh | Marburg entry inh | Cruzain Triton | StopGo reporter | Cruzain inh noDet
COc1ccc(NC(=O)CC2C(=O)NCCN2C(=O)c2ccccc2)cc1 (configuration not stated) | 1% | 1% | -11%[46.1 µM] | -9% | -5%[46.1 µM] | nt | -13% | nt
Cc1ccc(CNC(=O)c2ccc(CS(=O)Cc3ccccc3Cl)o2)cc1 (configuration not stated) | -2% | -16% | nt | 1% | nt | nt | -9% | nt
Cc1ccc(-c2nnn(CCC(=O)NC(C)(C)C)n2)cc1 | 5% | -7% | 26% | 12% | -5%[46.1 µM] | -1.3% | 64%[activator] | -10%
Nn1c(SCC(=O)Nc2ccc(Oc3ccccc3)cc2)nnc1C1CC1 | -1% | -1% | 3% | -11% | -14% | -6.4% | -19% | -12%
N#CCn1c2ccccc2c2nc3ccccc3nc21 | -1% | -2% | -6% | -13% | ? | nt | 0% | nt
NC(=O)c1cccc2c(=O)oc3ccccc3c12 | 4% | ? | 10% | 0% | 20%[46.1 µM] | -2.0% | -21% | -11%
Cc1ccc(CNC(=O)Cn2ccc3ccccc3c2=O)o1 | 2% | 1% | -7% | 6% | 3% | 4.9% | -19% | -3%
CC(CCn1cccn1)NC(=O)c1cc(COc2ccc(F)cc2F)on1 (configuration not stated) | -1% | 6% | 5% | -16% | ? | nt | -5% | nt
O=C(NC1CCCC1)C1CCCN(S(=O)(=O)c2ccc(-n3cnnn3)cc2)C1 (configuration not stated) | -5% | -6% | ? | 7% | -6% | -1.0% | -13% | -8%
O=S(=O)(CCSc1ccc(C(F)(F)F)cn1)c1ccc(Cl)cc1 | 1% | -3% | -7% | 10% | 0%[14.2 µM] | nt | 0% | nt
Cc1nc2sc3c(c2c2nc(-c4ccco4)nn12)CCCC3 | -2% | -31% | nt | nt | 1% | 2.3% | nt | 2%
COc1cc(CNCCSc2nnnn2C)cc(Br)c1OCc1ccccc1 | 0% | 3% | nt | -6% | nt | nt | -21% | nt
CCOC(=O)C(C(C)=O)c1c(Br)c(O)c(O)c2c(C(=O)c3ccc(C)cc3)coc12 (configuration not stated) | 8% | -60% | -94%[14.3 µM] | -7% | 2.3µM*! | -7.9% | -29% | ?
CCCc1cc(=O)[nH]c(Nc2ccc(O)cc2)n1 | -2% | 7% | -16% | 1% | 3% | 9.4% | -12% | -4%
O=C(O)c1ccc(/C=C2\SC(=S)N(NC(=O)c3ccc(Br)cc3)C2=O)cc1 | 1% | -3% | nt | 24% | nt | nt | -17% | nt
O=S(=O)(Nc1ccc(Br)cn1)c1ccc(Cl)s1 | -15% | -79% | nt | 2% | nt | nt | 73%[activator] | nt
CCC(OC(=O)c1ccco1)C(=O)NC1CCCC1 (configuration not stated) | -1% | -16% | 1%[46.1 µM] | -11% | 6%[46.1 µM] | nt | -6% | nt
CCN1CCN(c2nc(S(=O)(=O)c3ccc(C)cc3)c(Cl)s2)CC1 | -1% | nt | -32% | 2% | 4%[46.1 µM] | nt | -20% | nt
CC(C)CN(C(=O)c1ccc(C(F)(F)F)cc1)c1c(N)n(CC(C)C)c(=O)[nH]c1=O | 7% | 12% | ? | 19% | ? | nt | 9% | nt
CCCCn1c(-c2cccc3ccccc23)nc2cc3[nH]c(=O)c(C(C)C)nc3cc21 | -16% | 20% | nt | 6% | nt | nt | -14% | nt
CCOc1ncccc1C(=O)OCc1ccc(C(=O)OC)o1 | 5% | -55% | -2% | 1% | 13% | -4.6% | -21% | 6%
COCC(C)NC(=O)c1cc2c(=O)n3cccc(C)c3nc2s1 (configuration not stated) | nt | nt | -3%[46.1 µM] | nt | -30%[46.1 µM] | -20% | -11% | 0%
CC1(C)CC(N2CCCC2)=CC(=[N+]2CCCC2)C1 | -4% | 11% | ? | -28% | 2.1µM* | -8.6% | ? | 1%
CC(C)NC(=O)CC1C(=O)NCCN1CC(c1ccccc1)c1ccccc1 (configuration not stated) | -2% | -2% | ? | 2% | 8%[46.1 µM] | nt | 8% | nt
CC(C)C(C)NC(=O)CN1C(=O)NC2(CCCc3ccccc32)C1=O (configuration not stated) | 0% | nt | -10%[46.1 µM] | 1% | ? | nt | 9% | nt
Cc1ccc(-c2cc(-c3ccccc3)nc(N)c2C#N)o1 | 1% | 5% | nt | 6% | nt | nt | -10% | nt
O=C(CCCN1C(=O)NC2(CCCC2)C1=O)Nc1cccc(S(=O)(=O)N2CCOCC2)c1 | -12% | nt | -22%[46.1 µM] | 14% | 1% | nt | 0% | nt
CC(NCCCOc1cccc2ccccc12)c1ccccc1 (configuration not stated) | -4% | -32% | nt | 0% | nt | nt | -9% | nt
CC(C)(C)C1CCc2c(sc(NC(=O)C3CC=CCC3C(=O)O)c2C#N)C1 (configuration not stated) | 9% | 14% | 16% | 4% | ? | -18% | -2% | ?
Cc1cc2oc(=O)cc(CN(C)Cc3cccc(F)c3)c2cc1Cl | -3% | -3% | nt | 1% | nt | nt | 13% | nt
O=C(OCc1ccccc1)/C(=C/c1cccc([N+](=O)[O-])c1)NC(=O)c1ccco1 | 4% | -17% | -18%[46.1 µM] | 8% | ? | nt | -23% | nt
CCC(C)N(C(=O)Cn1c(=O)cnc2ccccc21)C1CCS(=O)(=O)C1 (configuration not stated) | 2% | nt | 5% | 0% | 1% | nt | 1% | nt
CCOC(=O)c1ccc(N/N=C/c2cc(Br)cc([N+](=O)[O-])c2O)cc1 | -3% | -4% | -7% | 1% | 22%[14.2 µM] | nt | -11% | nt
N#CCSc1nnc(-c2ccc3c(c2)OCO3)o1 | 0% | -1% | 21% | -2% | ? | nt | 42%[activator] | nt
O=C(CN1CCN(S(=O)(=O)c2ccccc2)CC1)NCc1ccccc1 | -2% | -1% | nt | -5% | nt | nt | -6% | nt
COc1ccc(/C=N/NC(=O)c2ccn[nH]2)cc1COc1ccc(Cl)cc1 | -11% | -36% | -30% | -10% | -28% | -2.7% | -20% | 18%
CCOc1ccc(Nc2nc(N)nc(CN(C)C3CCCCC3)n2)cc1 | -38% | 11% | ? | 0% | ? | -0.3% | -2% | 8%
Cc1onc(-c2ccccc2)c1C(=O)Nc1nc(-c2ccc(F)c(F)c2)cs1 | 2% | -12% | 12% | 8% | 2% | -1.4% | 0% | ?
O=C(NCCC1=CCCCC1)c1ccc2c(c1)N(Cc1ccc(Cl)cc1)C(=O)c1ccccc1S2(=O)=O | nt | nt | ? | nt | 11µM* | -1.3% | 12% | 32µM*
CNC(=O)NC(=O)C(C)OC(=O)CCCSc1nc2ccccc2s1 (configuration not stated) | 16% | 7% | ? | 11% | ? | -0.9% | -15% | 13%
CCOC(=O)C1CCN(C(=O)CCc2nnc3ccc(NCCCN4CCCC4=O)nn23)CC1 | 13% | 2% | nt | -13% | nt | nt | -6% | nt
COc1cc(/C=N/NC(=O)C[n+]2ccccc2)cc(OC)c1OC(C)=O | 6% | 0% | 0% | 3% | 3%[46.1 µM] | nt | -5% | nt
CCOC(=O)/C(C#N)=C/c1c(OCC)n(CC)c2ccccc12 | 13µM* | -12% | ? | 5% | 5% | -6.3% | -21% | 11%
CSc1nc2ccccc2n1CC(=O)Nc1c(C)n(C)n(-c2ccccc2)c1=O | 6% | -3% | -4% | -7% | 0% | 9.9% | nt | -5%
COc1ccc2nc(Nc3nc(CSc4nc5ccccc5[nH]4)cc(=O)[nH]3)nc(C)c2c1 | 1% | ? | ? | 22% | 11µM* | -5.1% | ? | ?
CN(C)C(=O)c1c2c(nc3ccccc13)CCCC2 | 0% | 3% | 6% | 11% | 5%[46.1 µM] | nt | -9% | nt
O=C(O)CSc1nnc(COc2cccc3cccnc23)n1-c1ccc(Cl)cc1 | 1% | 5% | -2% | -3% | ? | nt | -1% | nt
COc1ccccc1-n1c(SCC(=O)N2CCOCC2)nc(O)c(Cc2ccccc2)c1=O | 1% | ? | -5% | 15% | 28% | 1.1% | 32%[activator] | -10%
CCOc1cc(C(=O)OC(C(=O)NC(=O)NC)c2ccccc2)ccc1OCC(=O)N1CCOCC1 (configuration not stated) | -18% | nt | 17% | -22% | ? | nt | -16% | nt
CCN1C(=O)N(c2cccc3ccccc23)C(C)=CC1(C)C | 0% | -1% | 1% | 9% | -25%&-25% | 3.7% | -19% | -3%
COc1ccc(-c2[nH]ncc2CN(Cc2nccn2C)C(C)C)c(F)c1 | 1% | 0% | ? | 8% | 7%[46.1 µM] | nt | -15% | nt
Nc1c([N+](=O)[O-])cc(-c2cnc[nH]2)cc1[N+](=O)[O-] | -3% | 2% | nt | 13% | nt | nt | 2% | nt
COc1ccc(C(=O)NCc2nnc(SC)n2Cc2ccccc2)cc1 | 0% | nt | -9% | 26% | ? | nt | -16% | nt
O=C(NCCCN1CCN(c2cccc(Cl)c2)CC1)C1CCC(=O)N1Cc1ccccc1Cl (configuration not stated) | -2% | -6% | -23% | -19% | ? | -21% | -20% | -9%
CC1(C)C(=O)Nc2ccccc2N1C(=O)COC(=O)c1cccs1 | 4% | nt | 4% | -19% | ? | nt | ? | nt
COc1ccc(/C=C/C(=O)Nc2ccccc2)cc1S(=O)(=O)N1CCOCC1 | -1% | 1% | nt | 2% | nt | nt | ? | nt
CCOC(=O)/C=C1\SCC(=O)N1Cc1ccc(Br)cc1 | -3% | -14% | -12% | 3% | -11% | -5.8% | -20% | 9%
COc1cc(CN(C)CC2CCCN(CCc3ccc(F)cc3)C2)c(Cl)cc1O (configuration not stated) | 0% | 19% | nt | 6% | nt | nt | -3% | nt

Screening data deposited in PubChem by National Center for Advancing Translational Sciences (NCATS).
